PABP polyA inh: blocks human PABP binding to poly(A) RNA; fluorescence polarization; inhibition, % at 35 µM; actives 1% (n = 290,000); P11940;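 active means 50% or more with normal probe brightness, or confirmed in later tests; inconclusive means above 50% with abnormal brightness, or retests that disagree; inactive means below 50% or failed in later tests; about a fifth of its hits are not listed in these tables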;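 further: calls also rest on retests at 20 µM and on dose response follow-up; controls were probe without protein and protein plus probe with vehicle; some compounds called inactive have numbers as strong as hits; many hits fall short of the cut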
Target sequence (P11940 whole entry, looked up): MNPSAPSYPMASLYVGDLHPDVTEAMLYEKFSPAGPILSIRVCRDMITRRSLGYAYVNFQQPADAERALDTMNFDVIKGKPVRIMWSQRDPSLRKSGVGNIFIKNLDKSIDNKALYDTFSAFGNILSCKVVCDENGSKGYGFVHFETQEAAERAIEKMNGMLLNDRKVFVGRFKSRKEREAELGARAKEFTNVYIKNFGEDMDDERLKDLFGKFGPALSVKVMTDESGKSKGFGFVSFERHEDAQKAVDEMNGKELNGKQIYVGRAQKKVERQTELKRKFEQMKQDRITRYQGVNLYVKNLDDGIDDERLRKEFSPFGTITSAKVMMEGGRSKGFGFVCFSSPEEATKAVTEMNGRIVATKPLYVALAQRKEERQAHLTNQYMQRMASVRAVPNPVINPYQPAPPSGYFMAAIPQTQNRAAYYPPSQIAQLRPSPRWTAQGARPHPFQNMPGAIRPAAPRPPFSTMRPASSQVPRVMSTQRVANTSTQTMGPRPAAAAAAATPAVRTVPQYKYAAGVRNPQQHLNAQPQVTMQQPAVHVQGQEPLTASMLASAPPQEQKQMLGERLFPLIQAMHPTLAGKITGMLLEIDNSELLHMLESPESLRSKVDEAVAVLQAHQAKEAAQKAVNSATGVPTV
Env fusion inh: blocks HIV Env-driven cell-cell fusion; HeLa-JRFL Env/CEM21 cell fusion, luciferase; actives 1.1% (n = 360,000); inhibition, % at 12.3 µM;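 active means mean replicate inhibition score of at least 50 and every replicate individually at or above 50; inconclusive means only one of the two criteria met; inactive means mean below 50 and not all replicates reaching 50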;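 further: 0% = plate neutral controls and 100% = maraviroc near 300 nM; one replicate is shown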
Rce1 inh: blocks yeast Ras-converting enzyme | yeast membranes, quenched prenylated peptide cleavage fluorescence | calls only | actives 0.27% (n = 290,000) | AID 2563;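 active means fall in fluorescence gain of 50% or more versus controls, with final raw signal at or below 3038400; inconclusive means same 50% fall but final raw signal above 3038400; inactive means fall in fluorescence gain under 50%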;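 further: plate controls were neutral control wells for no effect and wells lacking membranes for full effect; tested at 10 µM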
eIF4H FP inh: inhibitors of RNA binding by human eIF4H; eIF4H fluorescence polarization binding assay; inhibition, % at 35 µM; actives 0.94% (n = 290,000); Q15056;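 active means 50% or more with normal probe brightness, or confirmed in later tests; inconclusive means above 50% with abnormal brightness, or retests that disagree; inactive means below 50% or failed in later tests; about a fifth of its hits are not listed in these tables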;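 further: calls also rest on retests at 20 µM and on dose response follow-up; 0% = protein and probe with vehicle and 100% = probe without protein; strong numbers were not always called active; many hits fall short of the cut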
MT1-MMP act inh: inhibitors of human MT1-MMP activation; AID 651647; GFP/RFP ratio change, % at 20 µM; HT1080 RFP-PRO-GFP cells, GFP/RFP ratio fluorescence, overnight; percent of plate control window, DMSO zero; actives 0.061% (n = 360,000);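 active means GFP/RFP ratio change of at least 30% with cell ATP level not reduced by more than half and red fluorescence within 50% of control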; further: strong numbers were not always called active
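Assay system – RFP-PRO-GFP reporter HT1080 cells · Compound dosing – single dose of 20 µM compound, 1% DMSO final · Incubation – overnight compound exposure at 37 °C · Measure – GFP/RFP fluorescence ratio · Benchmarks – DMSO wells and RFP-L50D-GFP cells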
Yeast UUG start: modulators of start codon recognition fidelity in yeast. S. cerevisiae UUG-firefly luciferase reporter, luminescence/redox ratio. activity score, % at 18.7 µM. actives 0.13% (n = 350,000);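 active means replicate mean at a twofold rise or more, about +100% in these data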;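 further: firefly luciferase made from a UUG start codon reports start codon fidelity; reporter light over untreated wells divided by growth signal over untreated wells; some hits fall short of that in this replicate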
CSC inhib: blocks cancer stem cells; cancer stem cell-like cells viability, luminescence; inhibition, % at 7.5 µM; actives 1.1% (n = 300,000); AID 2717;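 active means mean at 75% or more and at least half the replicates too; inconclusive means mean and replicates disagree; tested in HMLE shEcad cells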;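 further: 0% = median of negative and 100% = median of positive control wells; the first replicate is given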
eIF4H FP inh retest: also measured in eIF4H FP inh; calls as there; inhibition, %; compound at 20 µM; confirmation average;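 mean of two retest wells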
PABP polyA inh retest: recorded beside PABP polyA inh, whose call it bears; inhibition, %; compound at 20 µM; confirmation repeats;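 mean of two retest wells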
MT1-MMP act inh RFP: recorded beside MT1-MMP act inh, whose call it bears; RFP signal change, %; measured here: RFP expression control read;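 0 = vehicle wells; hits needed this value within 50% of zero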
Active calls of the source: *; i = inactive; ? = inconclusive; · = no result given.

SMILES	PABP polyA inh	Env fusion inh	Rce1 inh	eIF4H FP inh	MT1-MMP act inh	MT1-MMP act inh RFP	Yeast UUG start	CSC inhib	others
CC(=O)N(Cc1ccccn1)Cc1ccco1	10	9	i	14	1	5	·	-7
CN(C)S(=O)(=O)N1CCN(Cc2ccccc2)CC1	-9	-14	i	4	0	7	-7	-1
COc1ccc(Oc2c(Cl)cnn(-c3ccc(F)cc3)c2=O)cc1	-5	·	i	-5	-3	1	-12	0
COc1cc(OC)cc(C(=O)NCC(=O)OCc2nc3ccccc3s2)c1	-4	-58	i	0	-1	8	·	-8
S=C1NCCN1CC1CCN(CC2CCCC2)CC1	·	-12	·	·	0	4	0	·
Cc1cc(C)nc(OC(=O)c2ccc(Cl)cc2Cl)n1	4	-167	i	2	·	·	·	-10
COc1cccc(C(=O)NCC(C)(C)SCc2ccc(F)cc2)c1	0	15	i	-9	1	-4	-1	-3
CCN(CC(=O)Nc1c(F)cccc1F)C(=O)c1ccc(S(=O)(=O)N2CCCC2)cc1	·	6	i	·	1	0	7	5
CC(Sc1nnc(-c2cccnc2)n1-c1ccccc1F)C(=O)N1CCCc2ccccc21 (centres undefined)	6	-2	i	2	·	·	·	-22
Cc1noc(C)c1COC(=O)[C@@H](NC(=O)c1ccccc1Cl)C(C)C	-5	9	i	-8	4	2	-15	15
CCCn1c(SCC(=O)O)nc2ccccc21	8	·	i	4	2	10	-15	-14
O=C(Nc1cccc(F)c1)Nc1ccccn1	2	-154	i	-6	-4	-2	-3	-5
Cc1nn(C)c(C)c1Sc1ccc(Br)cc1	-4	·	i	2	0	-3	-8	·
COc1ccc(NC(=S)Nc2ccc(OCc3ccccc3)cc2)c(OC)c1	-8	0	i	-2	1	1	-19	·
CC/C(=N/NC(=O)c1ccccc1)c1ccc(OCCN2CCOCC2)cc1	-6	·	i	-4	0	6	-8	-5
Cc1coc2c(O)cc3c(c12)OC1(N2CCCCC2)C(=O)NCCCC31 (centres undefined)	31	13	·	97	-4	1	·	18	eIF4H FP inh retest=-11;PABP polyA inh retest=8
COc1ccc(C(=O)N(Cc2ccc(N(C)C)cc2)C2CCS(=O)(=O)C2)cc1 (centres undefined)	0	-93	·	-7	3	1	-2	-4
COc1ccc(S(=O)(=O)NCc2cccnc2)cc1C(=O)Nc1ccccc1	1	3	i	7	-2	1	-17	-27
CCCCn1c(SCC(=O)Nc2cc(C)on2)nnc1-c1cccnc1	12	10	i	-3	-5	2	-20	-3
CNc1nc(Cl)nc(NC(C)(C)C)n1	-7	·	i	-9	-1	1	-10	-7
COc1ccc(CCn2c(C)cc(C(=O)CSc3nnnn3-c3ccccc3)c2C)cc1	2	15	i	4	2	2	-9	0
CCCC(c1nnnn1Cc1ccccc1)N1CCN(c2ccccc2OC)CC1 (centres undefined)	-3	·	i	-9	-6	-6	8	-7
Cc1cccc(N(CC(=O)Nc2ccccc2-c2ccccc2)S(=O)(=O)c2ccccc2)c1C	5	1	i	-4	-10	-11	·	18
CC(=O)c1ccc(NC(=O)CNc2cc(S(=O)(=O)N3CCOCC3)ccc2N2CCCC2)cc1	·	-33	·	·	-2	-5	-21	·
O=C(CSc1c2c(nc3cc(Cl)ccc13)CCCC2)NCCCN1CCOCC1	1	-25	i	-4	-1	0	·	-5

4 compounds out of the list, arranged by count of non-hydrogen atoms, falling:
SMILES	PABP polyA inh	Env fusion inh	Rce1 inh	eIF4H FP inh	MT1-MMP act inh	MT1-MMP act inh RFP	Yeast UUG start	CSC inhib	others
O=C(CSc1c2c(nc3cc(Cl)ccc13)CCCC2)NCCCN1CCOCC1	1	-25	i	-4	-1	0	·	-5
Cc1noc(C)c1COC(=O)[C@@H](NC(=O)c1ccccc1Cl)C(C)C	-5	9	i	-8	4	2	-15	15
S=C1NCCN1CC1CCN(CC2CCCC2)CC1	·	-12	·	·	0	4	0	·
O=C(Nc1cccc(F)c1)Nc1ccccn1	2	-154	i	-6	-4	-2	-3	-5

Following part:
SMILES	PABP polyA inh	Env fusion inh	Rce1 inh	eIF4H FP inh	MT1-MMP act inh	MT1-MMP act inh RFP	Yeast UUG start	CSC inhib	others
COc1ccc(/C=C/c2cc(C(F)(F)F)on2)cc1	-6	-21	i	2	5	1	-9	-15
COc1cccc(CN(CC(=O)NCc2ccc(F)cc2)C(=O)c2ccco2)c1	-4	-10	i	-8	1	3	-6	-14
O=C(c1ccc2c3c(cccc13)CC2)C1CCCN(C(=O)c2ccc[n+]([O-])c2)C1 (centres undefined)	10	25	i	5	-4	-3	9	·
CCC(c1nc2ccccc2c(=O)n1CCN1CCOCC1)N1C(=O)c2ccccc2C1=O (centres undefined)	-1	7	i	-6	4	2	-2	·
CCN(CC)c1ccc(S(=O)(=O)N2CCOCC2)cc1NC(=O)CSc1n[nH]c(N)n1	3	-1	i	-5	6	4	·	-4
CCOc1ccc(S(=O)(=O)N/N=C\c2ccc3c(c2)OCO3)cc1	2	3	i	0	3	1	-2	-7
O=C(CC1C(=O)NCCN1C(=O)Nc1ccc(C(F)(F)F)cc1)Nc1ccc(F)cc1 (centres undefined)	6	8	i	0	3	1	-8	11
Cc1c(NP(=O)(c2ccc(Br)cc2)c2ccc(Br)cc2)c(=O)n(-c2ccccc2)n1C	2	-19	i	21	-4	-1	·	-3
O=C(COc1ccccc1)NCC(=O)N1CCCC1	-7	1	i	-4	0	2	-22	6
CCc1c(O)nc(SCc2ccc(F)cc2)[nH]c1=O	-4	4	i	-6	0	-3	8	0
Cc1nnc(SCc2nnc(-c3cccs3)o2)n1Cc1ccccc1	4	8	i	-2	0	0	·	-13
c1ccc(N2CCN(c3nc4ccccc4[nH]3)CC2)nc1	12	-15	i	15	0	0	·	-3
NS(=O)(=O)c1ccc(NC(=S)NCc2ccc3c(c2)OCO3)cc1	-2	16	i	-5	1	-8	·	-3
O=C(O)/C=C/C(=O)Nc1ccccc1-c1ccccc1	-4	·	i	1	-2	2	-3	15
COc1cc(C(=O)OCC(=O)N2CCCCC2C)cc(NC(=O)c2cccs2)c1OC (centres undefined)	6	6	i	-10	2	-4	·	10
CCCC(=O)N(CCc1ccc(OC)cc1)Cc1nc2ccccc2c(=O)[nH]1	5	·	i	-3	-3	-3	-15	-5
COc1cc2c(=O)n(CC3CCCO3)c(=O)n(CC(=O)Nc3ccc(F)cc3F)c2cc1OC (centres undefined)	0	3	i	-4	2	1	-29	-12
Cc1occc1C(=O)NC1CCCc2ccccc21 (centres undefined)	-2	19	i	-4	-3	-2	2	-4
COc1ccc(-c2[nH]ncc2CN2CCCN(C(=O)c3ccco3)CC2)cc1F	0	-10	i	-5	0	1	-12	-9
CCN(C[C@H]1N[C@@](C)(C(=O)OC)[C@H]2C(=O)N(C)C(=O)[C@@H]12)C(=O)COC	·	4	·	·	3	6	-5	·
COC(=O)C1=C(C)N=c2s/c(=C3\C(=O)Nc4ccccc43)c(=O)n2C1c1ccccc1 (centres undefined)	-12	·	i	-5	·	·	·	·
CCn1cc(C(=O)N[C@@H](CCSC)C(=O)NCCCO)c(=O)c2cc3c(cc21)OCO3	-3	-6	i	2	1	-1	·	-7
Cc1nc2sccn2c(=O)c1S(=O)(=O)NCC(C)c1ccccc1 (centres undefined)	-3	-18	i	-10	5	9	-2	-2
CCCCNC(=O)C1CCCN(S(=O)(=O)c2c(C)noc2/C=C/c2cccs2)C1 (centres undefined)	-2	8	i	-4	-9	-10	·	-5
Cn1nc(-c2ccc(Cl)cc2)c2cc(C(=O)NCCN3CCOCC3)sc21	-1	-49	i	2	-3	2	-12	47
Next part:
SMILES	PABP polyA inh	Env fusion inh	Rce1 inh	eIF4H FP inh	MT1-MMP act inh	MT1-MMP act inh RFP	Yeast UUG start	CSC inhib	others
CC1Sc2ccc(S(=O)(=O)CCC(=O)NC(C)c3ccccc3)cc2NC1=O (centres undefined)	2	2	i	7	0	1	-20	-10
O=C1CCCc2c1nc(-c1cccc(Cl)c1)n2O	14	-4	i	3	0	0	-4	·
COc1ccc(C(C)=O)cc1OCc1ccccc1	·	16	·	·	-3	-2	-4	·
COc1ccccc1CNC(=O)c1ccc(Br)o1	2	-5	i	-2	1	1	-4	-5
COc1cccc(N2CCN(C(=O)CN3C(=O)NC(C)(c4ccc5ccccc5c4)C3=O)CC2)c1 (centres undefined)	·	?	i	·	-13	-26	14	-15
Cc1nc2scc(C)n2c(=O)c1S(=O)(=O)N1CCN(c2cccc(C(F)(F)F)c2)CC1	8	26	i	3	-1	-4	-5	·
CCN1C(=O)c2cccc3c(S(=O)(=O)Nc4ccccn4)ccc1c23	-4	-63	·	-3	11	12	-5	8
CC(OC(=O)Cn1[nH]c(=O)c2ccccc2c1=O)C(=O)Nc1ccccc1[N+](=O)[O-] (centres undefined)	·	·	i	·	2	-2	·	0
CC[C@@]12C(=O)N(c3cccc(Br)c3)C(=O)N1[C@H](c1ccc(F)cc1)[C@@H]1C(=O)N(C3CCCCC3)C(=O)[C@@H]12	·	93*	i	·	-1	-3	-8	-5
Cc1ccc(NC(=O)CSc2nc3c(c(=O)n(C)c(=O)n3C)n2C)cc1	10	7	i	-14	1	0	-24	-13
COC(=O)CCC(=O)NC(=S)Nc1ccc(S(=O)(=O)Nc2cc(C)on2)cc1	0	33	i	-10	-4	5	-16	4
Cc1ccc(Nc2ncnc3nc[nH]c23)cc1Cl	-2	-60	i	-6	2	1	-15	22
O=C(Nc1cccnc1N1CCOCC1)c1ccco1	14	9	i	-9	-5	-1	-11	12
COc1ccc(N(C)S(=O)(=O)c2cccc(C(=O)Nc3nc(C)cs3)c2)cc1	·	·	·	·	-1	-7	-16	-17
Cc1cccc(NC(=O)CSc2nnnn2-c2cccnc2)c1	-3	·	i	0	5	2	-13	1
COc1ccc(-c2noc(CNC(=O)Nc3ccc(F)cc3)n2)cc1	-17	7	i	-4	2	1	·	4
Cc1ccc(CNC(=O)c2ccc(C)c(S(=O)(=O)N3CCCCC3)c2)cc1	·	11	·	·	3	-2	-17	0
O=C(CNc1cccc(C(F)(F)F)c1)N/N=C/C1CCCCC1	-13	5	i	1	3	4	-15	3
COc1ccc(C(=O)Nc2ccnn2C2CCN(Cc3ccn[nH]3)CC2)cc1	7	-1	i	2	3	4	-14	-6
COc1ccc(CCN(C)C(=O)c2c(C)nn(CC(C)C)c2Cl)cc1OC	11	1	i	6	-2	0	-6	-12
Cn1c(=O)[nH]c(=O)c2c1nc(N1CCOCC1)n2CCSc1nnnn1-c1ccccc1	0	-28	i	2	-2	2	2	-11
Cc1oc(=O)c(NC(=O)c2ccccc2)cc1C(=O)c1ccccc1	10	-101	i	-2	-5	1	·	0
CCOc1cc(/C=N/n2cnnc2)cc(Br)c1O	3	·	i	-2	3	0	-10	-5
COc1cccc(N2CCN(C(=O)CN3C(=O)NC4(CCCC4)C3=O)CC2)c1	-6	1	i	-8	2	0	-3	6
C#CC1CCCCC1NC(=O)Nc1cnccc1C(F)(F)F (centres undefined)	1	20	i	-8	2	5	-8	-9
Cc1ccccc1-c1cccc([C@@H]2C[C@H]3[C@H](CON3C)CN2Cc2cc(Cl)cc(Cl)c2)c1	·	-29	·	·	-5	-8	-30	·
O=c1ccccn1Cc1ccccc1F	-1	·	i	-10	0	3	1	·
O=C(Nc1ccccc1)C1=C[C@H](c2ccc3c(c2)OCO3)C[C@H](OCCCCO)O1	3	-18	i	-1	-37	2	-23	-10
COc1ccc2c(CC(=O)Nc3c(C)n(C)n(-c4ccccc4)c3=O)coc2c1	5	·	i	-8	6	1	-3	-15
O=C(NCc1ccccc1Cl)C1CCC(=O)N(C2CCCC2)C1 (centres undefined)	5	3	i	-15	5	1	-21	-7

Screening results: PubChem BioAssay, several laboratories

Not all compounds are listed; count on the stated rates, not on these rows.
